Bioassay records as filed in PubChem BioAssay.
Mtb bLac sens = beta-lactam sensitization of Mtb H37Rv; M. tuberculosis H37Rv growth with meropenem, percent inhibition; hits of this screen are not shown here; inhibition, % at 25 µM; actives 0.27% (n = 330,000); AID 434955;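 active = about 74% or more and at least 40 points above the plate without the antibiotic, then above 30% in a dose series; inconclusive = first-round hits that could not be retested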;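 also: growth measured after seven days incubation then overnight dye step; 0% = bacteria only wells and 100% = bacteria with antibiotic; twin plates without the antibiotic show which effects depend on it; some results filed as inactive read as strong as hits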
RecA splice inh = inhibitors of M. tuberculosis RecA intein splicing; inhibition, %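 (about 9 µM by stock and volumes)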; cell-free RecA intein splicing, fluorescence; P9WHJ3; actives 0.75% (n = 290,000); AID 2221; in the data active = inhibition above about 30%; inconclusive = no clear call, values can overlap the other calls;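 also: 0% = vehicle wells and 100% = reference inhibitor control wells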
Target sequence (P9WHJ3 whole entry, looked up, canonical isoform): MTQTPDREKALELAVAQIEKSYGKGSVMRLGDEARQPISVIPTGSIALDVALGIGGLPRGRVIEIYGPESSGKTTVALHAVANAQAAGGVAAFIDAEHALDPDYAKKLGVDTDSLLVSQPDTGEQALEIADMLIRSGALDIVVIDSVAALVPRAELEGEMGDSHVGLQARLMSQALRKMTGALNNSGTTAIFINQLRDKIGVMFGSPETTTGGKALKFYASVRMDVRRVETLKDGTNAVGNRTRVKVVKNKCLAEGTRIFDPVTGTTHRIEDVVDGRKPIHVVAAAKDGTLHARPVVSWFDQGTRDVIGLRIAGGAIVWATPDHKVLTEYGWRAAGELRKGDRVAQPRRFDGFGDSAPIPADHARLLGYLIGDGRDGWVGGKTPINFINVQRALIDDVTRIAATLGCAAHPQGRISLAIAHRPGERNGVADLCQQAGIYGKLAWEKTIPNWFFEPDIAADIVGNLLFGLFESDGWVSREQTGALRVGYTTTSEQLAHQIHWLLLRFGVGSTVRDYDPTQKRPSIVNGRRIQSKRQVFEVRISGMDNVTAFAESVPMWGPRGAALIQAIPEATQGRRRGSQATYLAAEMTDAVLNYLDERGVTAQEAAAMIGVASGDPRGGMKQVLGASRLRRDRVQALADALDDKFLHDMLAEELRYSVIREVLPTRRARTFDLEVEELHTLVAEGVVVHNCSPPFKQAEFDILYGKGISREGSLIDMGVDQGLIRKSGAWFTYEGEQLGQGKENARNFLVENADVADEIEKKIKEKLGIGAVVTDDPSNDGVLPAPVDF
YopH inh = blocks Yersinia enterocolitica YopH tyrosine phosphatase; actives 0.16% (n = 140,000); fluorescence Ex485/Em525; AID 898; inhibition, %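 (about 10 µM by stock and volumes)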;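 active = inhibition of 50% or more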;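 also: controls were vehicle for no effect and minimum signal wells for full effect; inactives centre near -20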
Arbovirus anti = blocks arbovirus infection; arbovirus infection cell-based antiviral screen; inhibition, % at 10 µM; actives 0.37% (n = 200,000);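 active = inhibition from about 30%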;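 also: bluetongue infection of BSR cells; cell survival read as ATP light after 72 h; 0% = infected wells without compound and 100% = uninfected wells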
Mtb growth = M. tuberculosis H37Rv growth inhibitors, H37Rv strain (AID 1626); one-dose inhibition, % at 10 µM; IC50 in µM for titrated hits; M. tuberculosis H37Rv growth inhibition; higher % means a stronger effect; actives 0.95% (n = 220,000);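 active = confirmed in a dose series; inconclusive = inhibition above 80% but not taken into the dose series; inactive = below 80% or under 30% at every dose of the series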;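 also: bacteria incubated seven days before Alamar blue readout; 0% = bacteria only wells and 100% = bacteria with antibiotic wells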
Arbovirus anti repeat = recorded beside Arbovirus anti, whose call it bears; inhibition, %; measured here: 10K subset replicate screen; many hits read low in the repeat;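 first of two repeat runs on a subset; 0% = infected and 100% = uninfected wells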
Numbers without * were called inactive; ? = inconclusive; · = no result given.

SMILES | Mtb bLac sens | RecA splice inh | YopH inh | Arbovirus anti | Mtb growth | others
O=C(COc1ccc(Cl)cc1)N1CCN(C(=O)c2cccs2)CC1 | 10 | 5.1 | · | 3 | -1%
CCCc1cc(=O)n2[nH]c(C)c(-c3ccccc3)c2n1 | 99 | -3.0 | -16 | -12 | 12%
CN1CCC(N2CCCC(C(=O)O)C2)CC1 (stereo unspecified) | -2 | 0.8 | -23 | 0 | -2%
Fc1cccc(CNCCc2c[nH]c3ccccc23)c1 | 8 | 0.7 | · | · | ·
CS(=O)(=O)N(Cc1ccco1)CC(O)Cn1cc(C=O)c2ccccc21 (stereo unspecified) | -13 | -4.6 | -3 | 5 | 0%
CC1(c2ccccc2)CC(C)(C)N(C(=O)CSc2nnc(N)s2)c2ccccc21 (stereo unspecified) | 1 | 6.1 | -16 | -22 | 9%
O=C(O)C=C1C2CC3CC(C2)CC1C3 | 9 | -1.5 | -17 | 9 | -7%
CC1(C)CC(=O)C(N=Nc2cc(Cl)c(Cl)c(Cl)c2)=C(O)C1 | 0 | · | -14 | -1 | 0%
Cc1ccc(CNC(=O)C(C)C2Sc3ccccc3NC2=O)cc1 (stereo unspecified) | -2 | 1.0 | · | · | 5%
CC(C(=O)c1c[nH]c2ccccc12)N1CCc2ccccc2C1 (stereo unspecified) | -16 | · | -13 | 10 | -2%
CCOc1nc(NC(=O)NS(=O)(=O)Oc2cccc(Cl)c2)nc(-c2ccccc2)n1 | · | · | -27 | -3 | 5%
Cc1csc(SCC(=O)Nc2ccc3c(c2)OCCO3)n1 | -2 | 12 | · | -1 | -1%
Cn1nc(Oc2nc(N3CCOCC3)nc(N3CCOCC3)n2)ccc1=O | -8 | -1.1 | -16 | -2 | -1%
Cc1ncc(CN2CCCC(C(=O)Nc3ccc(-c4ccco4)cc3)C2)cn1 (stereo unspecified) | 6 | -8.8 | · | · | ·
O=C(O)COc1ccc(/C=N/NC(=O)COc2nsnc2N2CCOCC2)cc1 | 2 | 2.2 | · | -3 | 1%
OCCN1CCN(CC/C=C2/c3ccccc3CSc3ccccc32)CC1 | -5 | 2.4 | · | · | ·
COc1ccc(N=C(C)C2=C(O)CSC2=O)cc1 | 97 | 0.6 | -2 | -6 | 43%
COc1ccc(CCC(C)NCc2cc(OC)cc(OC)c2)cc1 (stereo unspecified) | -3 | 0.9 | · | · | ·
CN(CC(=O)Nc1cccc(S(=O)(=O)N(C)C)c1)Cc1ccccc1 | 5 | -1.8 | · | · | ·
O=C(COc1ccccc1[N+](=O)[O-])Nc1ccccc1N1CCCCC1 | -8 | 20 | · | · | ·
CS(=O)(=O)Nc1ccccc1C(=O)Nc1ccccc1C(=O)N1CCCC1 | 4 | -3.8 | · | · | ·
CC(=O)c1cn(CCC(C)C)c(=O)[nH]c1=O | -3 | 0.2 | -40 | 5 | 6%
COC(CNC(=O)c1ccc2c(c1)ncn2-c1ccc(F)c(F)c1)OC | -2 | 1.3 | · | 3 | -7%
CC(C)(C)c1ccc(/C=C/C(=O)Nc2ccncc2)cc1 | 2 | -1.1 | -23 | -16 | 29%
CCc1nnc(NS(=O)(=O)c2ccc(N3C(=O)c4ccc(C(=O)O)cc4C3=O)cc2)s1 | 8 | -1.4 | · | 1 | 3%

Following part.
SMILES | Mtb bLac sens | RecA splice inh | YopH inh | Arbovirus anti | Mtb growth | others
CC1(C)C(=O)NCCN1C(=O)CCC(=O)O | -5 | 2.0 | 8 | -1 | 6%
COc1ccc(C(CC(=O)N2CCCC(C)C2)c2c(OC)cc(OC)c3c(-c4ccccc4)cc(=O)oc23)cc1 (stereo unspecified) | 49 | -1.5 | · | · | -5%
O=C(NCc1ccc(Cl)cc1)c1ccc(CNc2c(N3CCOCC3)c(=O)c2=O)cc1 | ? | 1.1 | · | · | 88%
S=c1[nH]nc(-c2ccc(Cl)cc2)n1-c1ccc2c(c1)OCCO2 | -6 | -0.1 | -19 | -6 | 12%
Cc1ccc(S(=O)(=O)N(CC(=O)NC2CCCC2)c2cccc(C)c2)cc1 | 1 | -4.9 | -25 | -3 | -6%
CC(C)(C)c1cc(N)on1 | 8 | -0.5 | -5 | -1 | 4%
COCCNC(=O)C(c1ccc(C)o1)N(Cc1cccs1)C(=O)c1snc(C(N)=O)c1N (stereo unspecified) | -2 | 2.9 | -29 | 7 | 1%
CC(C)c1ccc(NC2CCCN(C(=O)c3cc(C(C)C)nc(N)n3)C2)cc1 (stereo unspecified) | 7 | 0.5 | · | · | ·
CCC(C(=O)OC)n1cnc2scc(-c3ccc(C)cc3)c2c1=O (stereo unspecified) | 4 | -0.1 | · | · | ·
CC(=O)NS(=O)(=O)c1ccc(NC(=O)C2C3C=CC(C3)C2C(=O)O)cc1 (stereo unspecified) | 3 | · | -33 | 2 | 3%
COc1ccc(NC(=O)CN2C(=O)C(c3ccccc3)=NC23CCCCCC3)cc1OC | -1 | -1.6 | -23 | 3 | -2%
Cn1c(=O)[nH]c(=O)c2c1nc(N1CCC(Cc3ccccc3)CC1)n2Cc1ccccc1 | -4 | 4.0 | -47 | -8 | 5% | Arbovirus anti repeat=-7
COc1ccc(C2CC(c3ccc4ccccc4c3)=NN2C(=O)CNC2CCCCC2)cc1 (stereo unspecified) | 100 | 12 | · | -30 | 72%
CCN1CCN(c2ccc(NC(=O)c3cccc(F)c3)cc2Cl)CC1 | -2 | 3.0 | · | -31 | 3%
CSCCC(=O)N1C(C)CCCC1C(=O)O (stereo unspecified) | -12 | 2.3 | -31 | 5 | -2%
COc1ccc(OCC(O)CNS(=O)(=O)c2ccc(C)cc2)cc1 (stereo unspecified) | -3 | 5.2 | · | · | -4%
COc1ccccc1CCNC(=O)c1ccc2nc[nH]c2c1 | -6 | 5.2 | · | · | ·
COc1ccc(Cn2c(=O)[nH]c3cc(OC)c(OC)cc3c2=O)cc1 | 10 | -2.4 | · | · | 1%
C/C(CC(=O)Nc1cc(Cl)ccc1Cl)=N\NC(N)=S | 99 | -2.0 | -27 | -7 | 14%
O=[N+]([O-])c1cnn2cc(Br)cnc12 | -7 | -4.8 | · | 20 | 0%
CS(=O)(=O)Nc1ccc(C(=O)Nc2ccc(S(=O)(=O)Nc3nccs3)cc2)cc1 | 3 | -2.5 | · | · | ·
COc1ccc(Cl)cc1Nc1nc(NCCO)nc(N2CCCC2)n1 | 8 | -1.6 | -3 | -4 | ·
O=C(CN1CCN(S(=O)(=O)c2ccc(F)cc2)CC1)Nc1cccc(C(F)(F)F)c1 | 1 | 3.7 | -23 | 0 | ·
NC(=O)C1CCN(C2=C(NS(=O)(=O)c3ccc(Br)cc3)C(=O)c3ccccc3C2=O)CC1 | 4 | 5.8 | · | · | ·
Cn1c(CCN2CCOCC2)nc2cc(NS(=O)(=O)c3ccccc3)ccc21 | 32 | 3.8 | · | · | -12%

Reprinted from the part before: 2 compounds; new compounds follow.
SMILES | Mtb bLac sens | RecA splice inh | YopH inh | Arbovirus anti | Mtb growth | others
NC(=O)C1CCN(C2=C(NS(=O)(=O)c3ccc(Br)cc3)C(=O)c3ccccc3C2=O)CC1 | 4 | 5.8 | · | · | ·
Cn1c(CCN2CCOCC2)nc2cc(NS(=O)(=O)c3ccccc3)ccc21 | 32 | 3.8 | · | · | -12%
Cn1c(CCC(=O)Nc2cc(S(C)(=O)=O)ccc2Cl)nc2cc(S(=O)(=O)N3CCOCC3)ccc21 | 2 | 1.0 | · | · | ·
Cc1cccc(C(=O)NNC(=O)c2ccccc2Br)c1 | -5 | 0.4 | · | · | ·
CCc1sc(C(=O)Nc2cc(Cl)ccc2N2CCCCC2)cc1C | 39 | 4.5 | -14 | 6 | 12%
COc1ccc2nc(NC(=O)CCn3cccc3)sc2c1 | -2 | 0.4 | -48 | -10 | 4%
CC(=O)N1CCOc2ccc(S(=O)(=O)N3CCC(C(=O)NCc4ccccc4)CC3)cc21 | -11 | 2.5 | · | · | ·
CCC(=NCc1ccco1)c1c(O)[nH]c(=O)[nH]c1=O | -6 | 0.0 | -34 | -6 | 10%
O=C(NC(Cc1c[nH]c2ccccc12)C(=O)O)/C(=C\c1ccc2c(c1)OCO2)NC(=O)c1ccccc1 (stereo unspecified) | -1 | -4.6 | · | · | -5%
CCOCC(=O)NCc1ccc2c(c1)OCO2 | 28 | -0.6 | -1 | 1 | -1%
CCn1c(SCC(=O)NC2CC2)nnc1-c1cccc(OC)c1 | -12 | 0.2 | · | · | ·
Cc1cc(C)c(S(=O)(=O)NC2CCN(Cc3ccccc3)CC2)c(C)c1 | -6 | 2.0 | · | · | -4%
[O-]/[N+](=C\c1ccccc1)[C@@H]1CCCC[C@@H]1/[N+]([O-])=C/c1ccccc1 | -3 | 4.8 | -32 | 5 | -7%
COC(=O)C(C)N1C(=O)S/C(=C\c2ccc(-c3ccc(C(=O)O)cc3C)o2)C1=O (stereo unspecified) | -1 | -61 | · | · | ·
O=S(=O)(c1cccc2nsnc12)N1CCN(c2ccccc2F)CC1 | 3 | 0.4 | · | -4 | -1%
CN(C)c1ccc(/C=C/c2ccc3ccccc3n2)cc1 | 48 | -0.4 | · | · | -4%
CC1CCN(C(=O)CSCc2ccc(Cl)cc2)CC1 | -7 | -0.9 | -12 | 0 | -7%
Cc1ccc(CSCC(=O)N(C)CC(=O)Nc2ccc(Cl)c(Cl)c2)cc1 | -1 | 4.6 | · | · | ·
CN(C1CCCCC1)S(=O)(=O)c1ccc(-c2ccccn2)s1 | 0 | 3.0 | · | · | -5%
Cc1[nH]c2c(C(F)(F)F)cccc2c1CCN | 0 | -1.5 | -2 | -6 | -7%
CC(=O)c1cc(C#N)c(SCC(=O)OC(C)C)nc1C | -6 | 2.7 | -16 | 2 | 4%
CN(CC(=O)N1CCN(c2ccccn2)CC1)S(=O)(=O)c1ccc2ccccc2c1 | -16 | 2.0 | -22 | -4 | 5%
O=C(NCC1CCCN1S(=O)(=O)c1cccs1)c1ccc(Cl)cc1 (stereo unspecified) | -2 | 4.0 | · | · | ·
O=c1ccc2cc(S(=O)(=O)Nc3ccccc3F)ccc2o1 | -6 | -0.1 | · | · | ·
NNC(=O)c1ccc(COc2ccc(Br)cc2)o1 | -1 | 6.4 | · | · | ·
O=[N+]([O-])c1ccccc1-c1ccc(/C=N/n2cnnc2)o1 | -2 | 7.5 | -30 | 2 | 2%
Cc1nc(SCCC(C)C)c([N+](=O)[O-])[nH]1 | 0 | 0.8 | -25 | 0 | -7%
CCN(CC)C(=O)c1cc2cc(Br)ccc2oc1=O | -13 | 2.9 | -19 | -6 | -7%
Cc1ccc(S(=O)(=O)N(C)c2nc3ccccc3[nH]c2=S)cc1 | -13 | -4.4 | · | · | 0%
COC(=O)c1ccccc1S(=O)(=O)N(Cc1cc2ccc(OC)cc2[nH]c1=O)CC1CCCO1 (stereo unspecified) | -8 | 2.2 | -2 | -3 | -4%
COC(=O)c1ccccc1S(=O)(=O)N1CCC(C(=O)OC(C)C(=O)NC(N)=O)CC1 (stereo unspecified) | -1 | 1.6 | · | 4 | 3%
O=C(c1ccc([N+](=O)[O-])cc1)N(Cc1ccc(Cl)cc1Cl)N1C(=O)CCCC1=O | -6 | -0.4 | -16 | 3 | 0%

Filtered by structure: the entries above containing a COOH group.
SMILES | Mtb bLac sens | RecA splice inh | YopH inh | Arbovirus anti | Mtb growth | others
CN1CCC(N2CCCC(C(=O)O)C2)CC1 (stereo unspecified) | -2 | 0.8 | -23 | 0 | -2%
O=C(O)C=C1C2CC3CC(C2)CC1C3 | 9 | -1.5 | -17 | 9 | -7%
O=C(O)COc1ccc(/C=N/NC(=O)COc2nsnc2N2CCOCC2)cc1 | 2 | 2.2 | · | -3 | 1%
CCc1nnc(NS(=O)(=O)c2ccc(N3C(=O)c4ccc(C(=O)O)cc4C3=O)cc2)s1 | 8 | -1.4 | · | 1 | 3%
CC1(C)C(=O)NCCN1C(=O)CCC(=O)O | -5 | 2.0 | 8 | -1 | 6%
CC(=O)NS(=O)(=O)c1ccc(NC(=O)C2C3C=CC(C3)C2C(=O)O)cc1 (stereo unspecified) | 3 | · | -33 | 2 | 3%
CSCCC(=O)N1C(C)CCCC1C(=O)O (stereo unspecified) | -12 | 2.3 | -31 | 5 | -2%
O=C(NC(Cc1c[nH]c2ccccc12)C(=O)O)/C(=C\c1ccc2c(c1)OCO2)NC(=O)c1ccccc1 (stereo unspecified) | -1 | -4.6 | · | · | -5%
COC(=O)C(C)N1C(=O)S/C(=C\c2ccc(-c3ccc(C(=O)O)cc3C)o2)C1=O (stereo unspecified) | -1 | -61 | · | · | ·

A portion of the library; count on the stated rates, not on these rows.
